RN4220 kill = growth inhibition of S. aureus RN4220, primary screen, OD600; 0.33% of 330,000 active; 16 h; inhibition, % (test concentration not listed); AID 1259311, 2017;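 active = z-score of -3 or lower and OD600 up to 0.18 on both plates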;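 also: plate controls were untreated cells for no effect and reference antibiotic for full effect; stock transfer was 100 nL into about 80 µL; one replicate is shown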
Bead autofluor = flagged as autofluorescent in microsphere protease counterscreen; compound autofluorescence counterscreen, microsphere flow cytometry; hits give high values; fluorescence intensity (no concentration beside the values); 3.1% of 360,000 active;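 active = at least 3 SD above the mean of all compounds, about 16000 in these data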;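 also: 100 nL of 1 mM stock went into each well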
Mtb hypoxia rep = PubChem AID 1159583; M. tuberculosis hypoxia-regulated fluorescent reporter, fluorescence; fluorescence inhibition, % (no concentration beside the values); 0.1% of 300,000 active;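 active = 35 to 45% if threefold the growth effect, above 45% if 1.5-fold the growth effect; inactive = the rest, general growth blockers included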;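 also: wells of about 50 µL received 100 nL stock; 0% = vehicle wells and 100% = reference inhibitor wells; whole bacteria with a GFP reporter of the hypoxia response; strong numbers were not always called active; many hits fall short of the cut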
BJeLR viability = MLPCN primary cell-based screen for lethality selective to Ras in HRASV12 cells; BJeLR (HRASV12) viability, CellTiter-Glo ATP luminescence, 48 h; reference of the scale not given here; inhibition, % (test concentration not listed); 0.17% of 300,000 active; AID 1554, 2009;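 active = replicate mean above 50%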;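 also: 50 nL library stock added to about 25 µL; numbers are from one replicate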
ugtP null kill = growth inhibition of ugtP-null S. aureus, primary screen, RN4220 ugtP deletion, OD600; 16 h; some inactives read as strong as hits; growth inhibition, % (concentration not given with the values); 0.54% of 330,000 active; AID 1259309, 2017;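 active = z-score under -3 and OD600 up to 0.15 on both plates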;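 also: plate controls were untreated wells for no effect and antibiotic for full effect; wells of about 80 µL received 100 nL stock; the first replicate is given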
PrP UTR inh = inhibition of PrP 5' UTR reporter expression; cell-based PrP 5' UTR mRNA reporter, plate reader; inhibition, % (concentration not given with the values); 0.35% of 340,000 active;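 active = every replicate at 50% or more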;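 also: 0 = median of the neutral control wells; tested in H4 reporter cells; numbers are from one replicate; inactives centre near -14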
Mtb hypoxia rep growth = recorded beside Mtb hypoxia rep, whose call it bears; growth inhibition, %; measured here: M. tuberculosis growth (absorbance);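 0% = vehicle and 100% = reference antibiotic; read after six days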
* = called active by the depositor; nt = not tested or not shown.

cpd	mol	ugtP null kill	Mtb hypoxia rep growth	Mtb hypoxia rep	RN4220 kill	BJeLR viability	PrP UTR inh	Bead autofluor
1	O=C(NCc1ccccc1CN1CCCCC1)c1ccc(Cl)cc1N1CCCC1=O	3	7	17	6.5	nt	-12	4463
2	CCN(CC(=O)NCc1ccc(Cl)cc1)C(=O)c1ccc(S(=O)(=O)N(C)C)cc1	3	14	6	4.3	-3	18	3895
3	Cc1cc(-c2c(C)n([O-])c(C)c(C)[n+]2=O)ccc1F	-1	2	2	4.2	0	-16	10084
4	CCCn1ccc(O)c(Cc2ccc(Cl)cc2)c1=O	2	0	-8	1.8	2	-17	3174
5	COc1ccccc1CC1/C(=N/O)C2CCN1CC2 (stereo not drawn)	nt	nt	nt	nt	5	-23	5004
6	Cc1ccnc(NC(=O)CCC(=O)N(CC(=O)NC(C)(C)C)c2ccc3c(c2)OCCO3)c1	10	1	1	5.0	5	-5	4537
7	Cc1ncc([N+](=O)[O-])n1CC(=O)Nc1ccc(F)cc1F	4	7	-4	1.5	7	-16	3008
8	CC1CN(C(C)C(=O)NNC(=O)c2ccc(F)cc2)CC(C)O1 (stereo not drawn)	5	5	6	5.6	nt	-13	3615
9	COC(=O)C1CCN(C(=O)C(C)Oc2ccc(Cl)cc2Cl)CC1 (stereo not drawn)	4	10	7	0.6	19	-2	11527
10	COc1ccc(CCC(=O)Nc2cccc(S(=O)(=O)N3CCCC3)c2)cc1OC	4	0	0	4.4	nt	4	3949
11	COC(=O)Nc1nnc(-c2ccc(OC)cc2)s1	0	5	0	4.9	-3	-75	3419
12	COc1cc(C(O)CN)ccc1O (stereo not drawn)	-3	-10	-4	2.6	nt	-25	5834
13	COc1ccc(Nc2oc(COc3ccc(OC)cc3)nc2C#N)cc1	8	15	12	4.6	-3	21	5658
14	Cc1c2ccccc2nc2c(F)c(N(C)C)c(F)c(F)c12	nt	nt	nt	nt	0	-66	9066
15	CCC(Sc1nnc(C)s1)C(=O)Nc1nccs1 (stereo not drawn)	4	nt	nt	-3.6	-13	-19	4417
16	Cc1ccnc(SCC(=O)N2CCN(c3cccc(Cl)c3)CC2)n1	15	5	7	1.2	-5	-6	9779
17	COc1ccc(CNC(=O)CN(C(=O)CCC(=O)Nc2nccs2)c2ccccc2C)cc1	-3	5	16	4.5	-3	-15	3760
18	O=C1C2CCCN2c2ccc(S(=O)(=O)N3CCOCC3)cc2N1Cc1ccccc1F (stereo not drawn)	-2	2	0	4.0	5	-11	7485
19	O=C(c1cccs1)N(c1ccc(Br)cc1)C1C=CS(=O)(=O)C1 (stereo not drawn)	6	5	13	2.4	-5	-10	1942
20	COc1ccc(C(=O)N2CCCCCC2)cc1OC1CCN(C(C)C)CC1	5	9	8	2.8	5	-14	5165
21	CC1(C)CC(=O)C=C(NC2CCCCCCC2)C1	4	4	2	9.4	-8	-26	3374
22	CCOC(=O)C1=C(C)N=c2s/c(=C\c3cc(OC)c(OC)c(OC)c3)c(=O)n2C1/C=C/c1ccccc1 (stereo not drawn)	nt	nt	nt	nt	2	-15	2963
23	O=C(C1CCC1)N1CCN(S(=O)(=O)c2cc(F)ccc2F)CC1	2	0	4	1.4	nt	-11	5486
24	COc1ccccc1NC(=O)CCNC(=O)c1ccc(C)cc1	9	7	2	2.3	4	-19	3968
25	O=C(NN=Cc1cccnc1)C1CC1(c1ccccc1)c1ccccc1 (stereo not drawn)	9	1	8	5.0	nt	nt	nt
26	Cc1cc(=O)oc(C)c1C(=O)OCC(=O)c1ccccc1	2	7	12	5.6	3	-10	15709
27	CC(C)Cc1nnc(NC(=O)CCc2ccccc2)s1	14	2	3	2.1	8	-22	nt
28	COc1ccc(C(=O)C2CCN(C(=O)c3ccc(C)cc3)CC2)cc1	-1	10	4	1.4	8	-10	3431
29	COc1cc(C=NNc2cc(C)nc(N)n2)ccc1O	1	12	19	3.9	nt	nt	nt
30	O=C(Nc1nc(-c2ccccn2)cs1)C1CC1	2	20	-2	5.4	-1	-9	4108
31	CNC(=O)CC(CC(=O)c1ccccc1)c1ccccc1 (stereo not drawn)	2	7	10	6.7	nt	-1	3880
32	CCOCCCNC(=O)CN1C(=O)C(CC)Oc2ccccc21 (stereo not drawn)	12	-4	6	5.2	2	-21	9502
33	COc1ccc2nc(Nc3nc(CSc4nc5ccccc5s4)cc(=O)[nH]3)nc(C)c2c1	8	-2	1	2.1	-1	nt	nt
34	CC(C)c1ccc(NC(=O)c2n[nH]c(=O)c3ccccc23)cc1	-1	-3	2	6.2	nt	-87	4104
35	CCOc1ccccc1NC(=O)C1CCCCN1S(=O)(=O)c1ccccc1 (stereo not drawn)	2	-7	10	1.4	nt	0	3779
36	CC(=O)N1CCN=C1SCc1ccccc1	-4	nt	nt	-1.2	3	4	6335
37	N#Cc1c(NC(=O)C2CC2)sc2c1CCCCC2	5	-4	3	-0.6	2	-45	10681
38	COc1ccccc1NC(=O)C(=O)NCc1ccccc1Cl	7	6	9	2.1	-10	-19	2418
39	Cc1nn(C)cc1C=Nn1nnnc1N	0	6	5	4.8	nt	nt	nt
40	Cc1ccc(C(=O)OCCn2cc(C#N)c(=O)[nH]c2=O)cc1	2	0	1	5.3	1	-11	3184
41	COc1ccc(CC(=O)NN=C/C=C/c2ccc3c(c2)OCO3)cc1OC	4	-1	0	2.2	nt	nt	nt
42	CCc1nnc2cccc(Cl)n12	0	3	8	5.9	-2	-19	5288
43	Cn1c(SCc2cccnc2)nnc1-c1c[nH]c2ccccc12	-9	1	2	-17	2	-15	6467
44	CCN(C(=O)COC(=O)CCc1ccccc1)c1ccccc1	7	11	-4	6.1	-2	-17	4643
45	Cn1c(=O)n(C)c2cc([N+](=O)[O-])c(N3CCN(C(=O)c4cccc(F)c4)CC3)cc21	7	2	7	-3.1	3	-22	3868
46	CC(C)c1nc(-c2ccc([N+](=O)[O-])cc2)cs1	2	9	5	11	-5	-48	2118
47	Nc1cc(=O)[nH]c(=O)n1CC1CC1	-1	-1	12	-14	3	-18	2848
48	COC(=O)c1sc2nc(C)cc(C)c2c1N	0	-3	4	2.0	5	-1	4706
49	Cc1nn(Cc2ccccc2)c(C)c1NC(=O)CSc1nc2sc3c(c2c(=O)n1C)CCC3	-3	14	9	-14	-2	nt	nt
50	Cc1cc(NC(=O)CSCC(=O)OC(C)C(=O)c2cc(C)c(C)cc2C)no1 (stereo not drawn)	2	5	-4	2.4	-10	-19	5610
51	CCOC(=O)C1(Cc2ccc(OC)cc2)CCN(C(=O)CCc2cccnc2)CC1	6	2	8	1.6	0	5	2083
52	CC(=O)c1sc(NC(=O)C2=NN(c3ccccc3)C(=O)CC2)nc1C	19	0	-1	5.3	3	-10	3592
53	c1ccc2sc(SN3CCOCC3)nc2c1	-9	0	1	-4.0	2	-13	2472
54	CC(C)(C)c1cc2nc(N)nc(N)n2n1	10	3	-15	3.9	-9	-9	4582
55	CCOc1ccc(C=NOCC(=O)NC(c2ccccc2)c2ccccc2)cc1	35	-5	-1	-12	nt	nt	nt
56	O=C(NCCCN1CCCC1)c1ccc2c(c1)N(Cc1ccccc1F)C(=O)c1ccccc1S2(=O)=O	0	4	11	-4.1	0	-9	5757
57	O=C(Nc1cc(Cl)cc(Cl)c1)C(NCCO)c1ccccc1 (stereo not drawn)	0	3	11	3.7	-6	-9	22640*
58	COC(=O)C(N)Cc1ccc(OC)c([N+](=O)[O-])c1 (stereo not drawn)	9	6	12	4.9	-1	-13	4019
59	CC(C)C(=O)OCC(=O)Nc1ccc(N=Nc2ccccc2)cc1	3	10	3	-7.4	-4	-94	7684
60	CCc1ccc(NC(=O)CN2C(=O)C(=O)N(Cc3ccccc3)C2=O)cc1	2	10	14	2.7	5	nt	nt

Next entries follow.
cpd	mol	ugtP null kill	Mtb hypoxia rep growth	Mtb hypoxia rep	RN4220 kill	BJeLR viability	PrP UTR inh	Bead autofluor
61	CC(C)N(C(=S)NC1CC2CCC1C2)c1ccccc1 (stereo not drawn)	5	5	4	5.5	10	-33	4752
62	COC(=O)Cc1csc(Nc2ccccc2Cl)n1	11	16	18	6.9	-20	-51	2628
63	COC(=O)c1ccccc1S(=O)(=O)NNC(=O)Nc1ccccc1	10	3	1	1.9	3	-7	2918
64	Cc1ccc(NC(=O)CSc2nc(NS(=O)(=O)c3ccccc3)cc(=O)[nH]2)cc1	6	2	6	1.8	10	-19	9657
65	Clc1ccc(-c2nnn(Cc3nc4ccccc4s3)n2)cc1	0	3	2	2.4	1	-23	3817
66	CCOC(=O)C1=NN(c2ccccc2)C(=O)C1	4	1	2	5.8	-6	-67	4723
67	Cn1c(SCC(=O)NC(C)(C)C)nnc1-c1cccc(NC(=O)c2ccccc2F)c1	1	6	8	-1.1	0	-22	11248
68	CN(CCOc1ccc(-c2ccn(S(=O)(=O)c3cccc4ccccc34)n2)cc1)c1ccccn1	8	7	10	5.9	3	-21	4819
69	COc1ccc(S(=O)(=O)Nc2ccccc2C(=O)NCc2cccnc2)cc1	4	4	-16	2.4	0	-16	5622
70	O=[N+]([O-])c1cc2c(cc1/C=N/NS(=O)(=O)c1ccc(Br)cc1)OCO2	nt	nt	nt	nt	-2	-29	4735
71	Cc1cccc(C)c1NC(=O)N1CCN(c2nc3ccccc3s2)CC1	-1	-1	2	-1.6	9	-26	3592
72	Nn1c(SCC(=O)NCc2ccccc2)nncc1=O	-4	-7	-5	-4.1	-8	-1	11053
73	O=[N+]([O-])c1ccccc1C=Nn1c(-c2cccnc2)n[nH]c1=S	9	11	2	-7.1	nt	nt	nt
74	Brc1ccc(OCc2cn3ccccc3n2)cc1	nt	nt	nt	nt	6	-63	3358
75	CCCCCCNC(=O)CCNS(=O)(=O)c1ccc(C)cc1	4	19	8	0.9	-5	-8	3229

In another format: three of the compounds above.
(72) Nn1c(SCC(=O)NCc2ccccc2)nncc1=O
(73) O=[N+]([O-])c1ccccc1C=Nn1c(-c2cccnc2)n[nH]c1=S
(74) Brc1ccc(OCc2cn3ccccc3n2)cc1

| Assay by compound | 72 | 73 | 74 |
| --- | --- | --- | --- |
| ugtP null kill | -4 | 9 | nt |
| Mtb hypoxia rep growth | -7 | 11 | nt |
| Mtb hypoxia rep | -5 | 2 | nt |
| RN4220 kill | -4.1 | -7.1 | nt |
| BJeLR viability | -8 | nt | 6 |
| PrP UTR inh | -1 | nt | -63 |
| Bead autofluor | 11053 | nt | 3358 |

Remaining list, next part:
cpd	mol	ugtP null kill	Mtb hypoxia rep growth	Mtb hypoxia rep	RN4220 kill	BJeLR viability	PrP UTR inh	Bead autofluor
76	CN(C)c1ccc(C2NCC(CCl)O2)cc1 (stereo not drawn)	0	nt	nt	1.5	12	-6	6423
77	COc1cc2c(cc1CNC[C@H]1O[C@@H](n3cnc4c(N)ncnc43)[C@H](O)[C@@H]1O)OCO2	2	-2	-11	3.0	nt	0	3472
78	CCOC(=O)C1CCCN(C(=O)c2cc(Cl)ccc2Cl)C1 (stereo not drawn)	0	2	-4	1.9	-5	-8	8952
79	COc1ccc(CCN(C)C(=O)c2cc(S(=O)(=O)N3CCCCCC3)ccc2OC)cc1OC	2	11	10	1.3	3	-14	5329
80	CCOC(=O)CN1C(=O)N[C@@H](c2cccc(C(F)(F)F)c2)[C@@H](C(=O)OC)[C@H]1C	nt	nt	nt	nt	4	-29	4200
81	NC(=O)CC(NC(=O)c1ccccc1)c1ccc(NCc2ccc(F)c(F)c2)c([N+](=O)[O-])c1 (stereo not drawn)	6	-3	9	-10	-7	-19	2894
82	COc1cccc(NC(=O)CN2CCN(c3nc(-c4cccc(OC)c4)cs3)CC2)c1	-22	-2	-6	-2.8	-3	-20	7116
83	Cc1cc(-c2n[nH]c(=S)n2/N=C/c2ccc(Cl)c([N+](=O)[O-])c2)n[nH]1	nt	nt	nt	nt	-12	-13	2469
84	COc1ccc(C(=O)NNC(=O)c2ccccc2[N+](=O)[O-])cc1[N+](=O)[O-]	6	8	1	1.2	-21	3	3287
85	CN(C)S(=O)(=O)Oc1cccc(C(=O)Nc2ccc(Cl)cc2)c1	0	16	10	1.7	6	-124	3668
86	CCOC(=O)Cc1c(C)nc2c(-c3ccccc3)c(-c3ccccc3)[nH]n2c1=O	2	5	8	1.0	14	-6	16109
87	O=C(CN1C(=O)S/C(=C\C=C\c2ccccc2)C1=O)NC1CCS(=O)(=O)C1 (stereo not drawn)	7	5	5	2.9	0	-39	5783
88	COc1ccc(Nc2nc(N(C)c3ccccc3)nc(N)c2[N+](=O)[O-])cc1	0	4	7	1.7	7	-33	3668
89	O=S1(=O)CCOCCCN1Cc1ccc(Cl)cc1	1	1	-3	2.7	6	-12	4025

Bioassay records as filed in PubChem BioAssay.
